Assay outcomes (PubChem)
Mtb betalactam: beta-lactam sensitization of Mtb H37Rv. M. tuberculosis H37Rv growth with meropenem, percent inhibition; hits of this screen are not shown here. inhibition, % at 25 µM. actives 0.27% (n = 330,000);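 active = about 74% or more and at least 40 points above the plate without the antibiotic, then above 30% in a dose series; inconclusive = first-round hits that could not be retested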;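 also: growth measured after seven days incubation then overnight dye step; 0% = bacteria only wells and 100% = bacteria with antibiotic; twin plates without the antibiotic show which effects depend on it; some results filed as inactive read as strong as hits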
YopH PTP inh: blocks Yersinia enterocolitica YopH tyrosine phosphatase; fluorescence Ex485/Em525; inhibition, %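 (about 10 µM by stock and volumes)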; actives 0.16% (n = 140,000); AID 898;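 active = inhibition of 50% or more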;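 also: controls were vehicle for no effect and minimum signal wells for full effect; inactives centre near -20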
RecA splice inh: inhibitors of M. tuberculosis RecA intein splicing; cell-free RecA intein splicing, fluorescence; P9WHJ3; inhibition, %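 (about 9 µM by stock and volumes)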; actives 0.75% (n = 290,000); in the data active = inhibition above about 30%; inconclusive = no clear call, values can overlap the other calls;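 also: 0% = vehicle wells and 100% = reference inhibitor control wells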
Target sequence (P9WHJ3 whole entry, looked up, canonical isoform): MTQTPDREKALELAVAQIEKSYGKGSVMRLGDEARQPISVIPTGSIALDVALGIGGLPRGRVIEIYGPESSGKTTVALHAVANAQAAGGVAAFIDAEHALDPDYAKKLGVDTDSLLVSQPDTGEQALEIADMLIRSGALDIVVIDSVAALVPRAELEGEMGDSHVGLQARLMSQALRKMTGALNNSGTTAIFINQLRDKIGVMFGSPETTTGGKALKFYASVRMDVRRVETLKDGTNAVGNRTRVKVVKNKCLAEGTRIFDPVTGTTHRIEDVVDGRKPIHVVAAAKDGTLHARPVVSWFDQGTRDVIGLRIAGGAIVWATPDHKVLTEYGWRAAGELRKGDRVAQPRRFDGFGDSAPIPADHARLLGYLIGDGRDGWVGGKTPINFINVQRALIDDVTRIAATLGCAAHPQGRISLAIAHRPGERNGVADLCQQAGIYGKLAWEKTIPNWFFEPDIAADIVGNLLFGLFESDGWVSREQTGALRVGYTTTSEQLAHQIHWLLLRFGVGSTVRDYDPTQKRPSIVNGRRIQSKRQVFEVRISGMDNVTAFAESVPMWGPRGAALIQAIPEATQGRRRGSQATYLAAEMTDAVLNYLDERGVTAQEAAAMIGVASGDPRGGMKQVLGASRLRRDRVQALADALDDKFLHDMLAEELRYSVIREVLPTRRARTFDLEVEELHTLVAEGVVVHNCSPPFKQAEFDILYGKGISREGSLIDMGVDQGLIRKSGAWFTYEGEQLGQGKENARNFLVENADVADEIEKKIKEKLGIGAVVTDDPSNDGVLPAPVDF
Arbovirus inh: blocks arbovirus infection; arbovirus infection cell-based antiviral screen; inhibition, % at 10 µM; actives 0.37% (n = 200,000); AID 1251;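 active = inhibition from about 30%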;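 also: bluetongue infection of BSR cells; cell survival read as ATP light after 72 h; 0% = infected wells without compound and 100% = uninfected wells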
Mtb growth: M. tuberculosis H37Rv growth inhibitors, H37Rv strain (AID 1626); actives 0.95% (n = 220,000); M. tuberculosis H37Rv growth inhibition; higher % means a stronger effect; inhibition, % at 10 µM; hits with a dose series show IC50 in µM;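 active = confirmed in a dose series; inconclusive = inhibition above 80% but not taken into the dose series; inactive = below 80% or under 30% at every dose of the series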;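 also: bacteria incubated seven days before Alamar blue readout; 0% = bacteria only wells and 100% = bacteria with antibiotic wells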
Arbovirus inh repeat: also measured in Arbovirus inh; calls as there; inhibition, %; measured here: 10K subset replicate screen; many hits read low in the repeat;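 first of two repeat runs on a subset; 0% = infected and 100% = uninfected wells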
The depositor's hits bear a star; ? = inconclusive; / = not tested or not shown.

SMILES	Mtb betalactam	YopH PTP inh	RecA splice inh	Arbovirus inh	Mtb growth	others
CC(C)(C)c1ccc(CSc2nnc(-c3ccccn3)n2Cc2ccco2)cc1	22	-17	15	-24	/
COC(=O)c1ccc(OC(=O)CCc2cc(OC)c(OC)c(OC)c2)cc1	12	/	10	0	4%
CC12COC3(C(=O)Nc4nccs4)CC1CCC32C (centres undefined)	7	-10	2.8	-4	-5%
COc1ccc(CNC(=O)C2CC(c3ccc(C(F)(F)F)cc3)=NO2)cc1 (centres undefined)	4	/	2.8	/	-1%
CN1CCN(c2cc(N3CCCCCC3)c(F)cc2[N+](=O)[O-])CC1	3	-16	12	-28	-4%
O=C1c2nccnc2C(=O)N1c1ccc(F)cc1	-6	/	1.8	20	4%
CC(=O)Nc1ccccc1-c1nc2ccc(C(=O)N3CCN(c4cccc(C)c4)C(C)C3)cc2[nH]c1=O (centres undefined)	2	-32	2.3	6	12%
Cc1nn(CC(=O)Nc2nnc(CC(=O)N3CCCC3)s2)c(=O)c2ccccc12	-7	-34	-1.4	/	-2%
CCn1c(CSc2nc3ccccc3s2)nnc1SCC(=O)c1ccc2c(c1)OCCO2	-5	-43	8.3	1	1%
CCN1C(=O)C2(C(C(=O)c3ccc(C)o3)=C(O)C(=O)N2CCCN(C)C)c2ccccc21 (centres undefined)	-4	/	2.6	/	-11%
CCOCCOC(=O)C(C)Sc1n[nH]c(=O)[nH]c1=O (centres undefined)	-6	-45	0.5	-6	-4%
COc1ccccc1-c1c(C#N)c(N)nc2c1CCC2	1	/	/	/	3%
CCCC(c1nnnn1CC(=O)OCC)N(Cc1cc2c(C)cc(C)cc2[nH]c1=O)C1CCCC1 (centres undefined)	-1	-43	2.9	6	-2%
CCCCN(C)CCCNC(=O)C1(O)c2ccccc2NC(=O)N1c1ccc(Cl)cc1 (centres undefined)	-4	/	-0.5	/	/
CC(=O)Nc1ccc(Nc2c([N+](=O)[O-])c(=O)n(-c3ccccc3)c3ccccc23)cc1	-2	/	0.6	-22	3%
NC(N)=N/N=C/c1ccccc1OC(F)F	-9	/	-1.7	4	3%
O=C(N/N=C\c1ccc(Sc2ccccn2)o1)c1cccc(Br)c1	39	-16	3.5	-3	-5%
Cc1ccc(-c2nn(CC(=O)NCCN3CCOCC3)c(=O)c3ccccc23)cc1	-5	4	-1.6	3	-2%
O=C1C=C(NC(=O)Nc2ccc(Cl)c(Cl)c2)CCC1	55	/	2.2	15	2%
CC1CCCC(NC(=O)c2ccc3c(c2)NC(=O)CS3)C1C (centres undefined)	3	/	-0.4	/	/
COc1cccc(CN(C)C(=O)Nc2cccc(C(F)(F)F)c2)c1OC	5	-30	-1.7	-1	0%
CCCNC(=O)C1CN(S(=O)(=O)c2ccc(C)cc2)c2ccccc2O1 (centres undefined)	-1	/	0.7	/	/
Cc1ccc(-c2nnc(NC(=O)CCS(=O)(=O)c3ccc(F)cc3)o2)c(C)c1	4	/	-0.7	/	/
O=C1c2cccnc2C(=O)N1Cc1ccc(S(=O)(=O)N2CCN(c3ccccc3)CC2)cc1	9	/	1.3	/	/
CCOc1ccc(-c2noc(CCC(=O)NC3CCCCC3)n2)cc1OC	1	/	-0.5	/	/
O=C(Nc1ccc(-n2cnnn2)cc1)C1CCCCC1	2	-5	-1.6	-6	-12%
C=CCn1c(NCc2cc(Cl)ccc2O)nc2ccccc21	14	/	-0.3	/	/
CSC1CCCCC1(O)CSc1nc2c(cc1C#N)CCCC2 (centres undefined)	2	13	-1.3	1	-5%
CCn1nc(C)c(Br)c1C(=O)Sc1ccccc1Cl	-6	/	23	/	5%
COCCN(C(=O)/C=C/c1ccccc1)c1c(N)n(Cc2ccccc2)c(=O)[nH]c1=O	-6	/	-0.6	2	3%
CC(C)NC(=O)NC(=O)COC(=O)Cc1c(F)cccc1Cl	2	/	0.6	17	-7%
CCC1=C/C(=C/c2sc3ccccc3[n+]2CC)CC(C)(C)C1	8	/	11	6	7%
COc1cc2c(cc1OC)[C@H](C)N(C(=O)COc1ccccc1)CC2	?	/	-1.6	/	/
Cc1ccccc1CC(=O)NC1CCN(C)CC1	5	/	-2.2	/	/
Cc1cccc(C)c1NC(=O)Cn1c(=O)c2cccn2c2ccccc21	10	/	-1.5	/	/
COc1ccc(C(CNc2ccc(S(C)(=O)=O)cc2[N+](=O)[O-])N(C)C)cc1OC (centres undefined)	-2	/	-0.2	/	/
COc1ccc(C(=O)NCc2nnc(SCC(=O)Nc3cc(OC)ccc3OC)o2)cc1	-6	/	-3.4	/	/
O=C1CN2NC(=S)N(c3ccc(Cl)cc3)C2=CN1c1ccc(Cl)cc1	-2	/	-1.7	16	-3%
Cc1ccc(-c2noc(CN(C)C(=O)Nc3ccc(F)cc3)n2)cc1	5	/	-1.3	5	10%
CCOC(=O)c1cnc2c(C)cc(C)cc2c1NCCCN1CCOCC1	5	/	-0.6	/	/
CCCC(=O)NC(=S)N1CCN(c2ccc([N+](=O)[O-])cc2)CC1	7	-28	-0.3	1	0%
Cc1ccccc1C(=O)N/N=C/c1ccc(OCC(=O)N2CCCCC2)cc1	1	-23	5.6	3	-1%
CCCn1c(NCc2cccc(OC)c2OC)nc2ccccc21	1	-18	/	10	-6%
Cc1ccc(NC(=O)CN2CCC(NC(=O)c3cccc(F)c3)CC2)cc1C	-5	/	-0.7	/	/
CN1CC=C(c2c[nH]c3ccccc23)CC1	-14	-7	1.8	19	-7%	Arbovirus inh repeat=4
O=c1[nH]c(=S)[nH]c(O)c1N=Nc1ccc(-c2ccccc2)cc1[N+](=O)[O-]	/	/	-2.0	6	-5%
CC(NC(=O)Nc1ccccc1)c1ccccc1 (centres undefined)	1	-12	2.0	-2	-4%
CC1=NNC(=O)C1Cc1ccccc1 (centres undefined)	4	/	96*	/	/
COC(=O)C1=C(c2cc3ccccc3s2)C[C@@H]2CC[C@H]1N2C(=O)NC(C)C	-5	/	1.4	/	-1%
N#CCCn1cc(C(=O)O)c(-c2cccc([N+](=O)[O-])c2)n1	-6	/	0.4	8	-7%
COc1ccc(C(=O)c2ccc(N3CCN(C(=O)c4ccc(F)cc4)CC3)c(F)c2)cc1Br	10	10	-0.6	-25	33%
Cc1cc(Oc2ccccc2)nc(SCC(=O)Nc2ccc(Cl)c(Cl)c2)n1	2	-11	13	-28	-1%
COc1ccc(-c2nc(NC3=NCCCCC3)sc2C)cc1	5	/	4.8	7	7%
C/C(=N\NC(=O)c1cc(C)[nH]n1)C(C)(C)C	-11	-31	-6.9	-4	-6%
Cc1ccc(S(=O)(=O)CC(=O)N2CCCCCC2)cc1	-2	-18	-0.2	4	-8%
O=C(Nc1ccncc1)C1c2ccccc2Oc2ccccc21	-8	-33	0.7	9	-3%
C=CCC1NS(=O)(=O)OCC1C(C)C (centres undefined)	1	/	-0.2	/	/
CC1CCN(C(=S)Nc2ccc(SC(F)F)cc2)CC1	1	-20	-1.5	17	9%
CC(=O)N1CCC(=NNC(=O)c2cccs2)CC1	10	-28	1.3	0	3%
CCOc1cc2c(cc1/C=C1/NC(=O)N(CC(=O)OC)C1=O)OCO2	-2	/	-5.8	17	-2%

Pulled by structure from the list above, two records:
SMILES	Mtb betalactam	YopH PTP inh	RecA splice inh	Arbovirus inh	Mtb growth	others
N#CCCn1cc(C(=O)O)c(-c2cccc([N+](=O)[O-])c2)n1	-6	/	0.4	8	-7%
CC1CCN(C(=S)Nc2ccc(SC(F)F)cc2)CC1	1	-20	-1.5	17	9%

Carrying on.
SMILES	Mtb betalactam	YopH PTP inh	RecA splice inh	Arbovirus inh	Mtb growth	others
Cc1nc(C)c(-c2ccc(SCC(=O)Nc3cccc(F)c3)nn2)s1	-28	/	1.5	/	/
COC(=O)c1cc(S(=O)(=O)NCc2ccc3c(c2)OCO3)cn1C	6	/	4.0	/	/
COc1cc(-c2nnn(CC(=O)NCc3ccccc3)n2)cc(OC)c1OC	-11	/	-1.8	-12	5%
CCc1noc(C)c1C(=O)N1CCCSC1=Nc1ccccc1C(C)C	-5	/	5.9	/	/
Cn1ncc2c(Sc3ccc(Cl)cc3)ncnc21	1	/	9.5	/	-4%
N#Cc1ccc(Cl)cc1NC(=O)CSc1nc2nc(-c3cccs3)cc(C(F)(F)F)c2c(=O)[nH]1	-9	/	-0.5	/	-18%
CC(C)(C)NC(=O)c1cccc(NC(=O)c2cccc(O)c2)c1	8	-31	-0.7	6	-15%
O=C(Nc1cccc(NC(=O)c2ccccc2[N+](=O)[O-])c1)c1ccccc1Cl	-4	/	-2.4	/	/
CC(C)CN(CCNC(=O)c1cn(C)c2ccc(S(=O)(=O)N3CCCC3)cc2c1=O)CC(C)C	3	/	-1.1	/	/
Cc1ccc(C(=O)NC2CCCCCC2)cc1S(=O)(=O)N1CCOCC1	-2	/	-1.2	/	/
CSc1cccc(NS(=O)(=O)c2ccc(F)cc2)c1	1	-27	11	1	9%
CCOC(=O)Cn1nc(C)c(NC(=O)CCc2ccccc2)c1C	-2	/	-0.6	2	-3%
Cc1ncsc1CCC(=O)N1CCCC(Nc2ccc(C(C)C)cc2)C1 (centres undefined)	-21	/	-2.8	/	/
Cc1ccccc1C(=O)N1CCC(C(=O)Nc2ccc(S(=O)(=O)N(C)C(C)C)cc2)CC1	-20	-79	0.2	0	11%
COc1ccccc1CNS(=O)(=O)c1c(C)nc2scc(C)n2c1=O	-4	/	-2.4	/	/
CCC(=O)Nc1cc(C)c(NC(=O)c2ccccc2OC)cn1	-6	-58	1.3	7	8%
CCc1noc(C)c1C(=O)N1CCN(S(=O)(=O)c2ccc(C)cc2C)CC1	-13	/	1.1	/	/
CC(=O)Nc1cccc(NC(=O)CSc2nc(=O)n(Cc3ccncc3)c3c2CCC3)c1	7	/	0.8	/	/
C=CCNC(=O)N[C@@H](CCSC)C(=O)OC	0	-42	-1.7	8	-10%
Cc1cccc(NC(=O)c2c(C)nc3ccccn23)c1	-1	-23	0.9	-2	-6%
Clc1ccc2sc(C3CCNCC3)nc2c1	0	/	4.2	/	/
CC(C)(C)c1ccc(/C=N/OCC(=O)NCc2ccc(F)cc2)cc1	11	-32	1.5	5	-5%
O=P(c1ccccc1)(c1ccccc1)C(O)c1ccncc1 (centres undefined)	0	-40	0.5	0	-1%
CCCCNC(=S)N=Nc1c(O)n(Cc2ccccc2)c2ccccc12	2	-17	1.8	-17	3%
O=c1c2ccccc2nc(-c2ccco2)n1-c1nc2ccccc2s1	-10	4	-0.8	-5	1%
O=C(Nc1ccccc1C(F)(F)F)N1CCCCCC1	5	-51	1.2	4	-7%
NS(=O)(=O)c1ccc(CCNC(=O)c2cc(-c3cccs3)nc3ccccc23)cc1	/	/	0.6	-1	6%
COCc1c(C(C)C)nc(C(C)C)c(/C=C/[C@@H](O)C[C@@H](O)CC(=O)O)c1-c1ccc(F)cc1	4	/	4.1	/	-13%
O=C(O)c1cccc(Nc2ccc([N+](=O)[O-])cn2)c1	4	/	2.8	/	/
COc1ccccc1CC(=O)Nc1ccc(Cl)cc1C(=O)O	-3	/	-1.1	14	-1%
COc1ccc(NC(=O)COC(=O)CCCOc2ccc(Cl)cc2Cl)cc1	18	-17	-0.3	5	13%
CS(=O)(=O)NN1C(=O)c2ccccc2NC1c1ccccc1F (centres undefined)	-2	/	-4.7	/	/
Cc1cc(C)c(NC(=O)CSc2nc3c(c(=O)n2C)SC(C)C3)c(C)c1 (centres undefined)	-2	-23	0.4	4	-1%	Arbovirus inh repeat=5
CSc1nc2ccccc2n1C(=O)Oc1ccccc1	4	-35	4.6	1	-3%
Cc1cc(C(=O)NCCCn2ccnc2)cs1	-4	-1	/	-2	-5%
O=C(NC1CCS(=O)(=O)C1)c1ccc2c(c1)OCO2 (centres undefined)	-11	/	3.8	/	/
Cc1ccc(N(CC(=O)NCCc2ccccc2)C(=O)CCC(=O)Nc2cc(C)ccn2)cc1	2	/	-0.3	/	/
Cn1c(C(=O)N[C@@H](Cc2ccccc2)C(=O)O)cc2cc(Cl)ccc21	5	/	-0.4	/	/
O=c1[nH]n2c(=O)c3c([nH]c2c1N=Nc1cccc(C(F)(F)F)c1)CCCC3	74	-15	12	37*	15%
C/C(=N\OCC(=O)Nc1ccc(F)c(F)c1F)c1cc2ccccc2o1	-1	-27	4.3	8	4%

3 structures already listed, arranged by heavy-atom count, rising:
SMILES	Mtb betalactam	YopH PTP inh	RecA splice inh	Arbovirus inh	Mtb growth	others
COc1ccc(-c2nc(NC3=NCCCCC3)sc2C)cc1	5	/	4.8	7	7%
Cc1cccc(C)c1NC(=O)Cn1c(=O)c2cccn2c2ccccc21	10	/	-1.5	/	/
COc1ccc(C(=O)NCc2nnc(SCC(=O)Nc3cc(OC)ccc3OC)o2)cc1	-6	/	-3.4	/	/

Some of the compounds tested, so the mix of outcomes need not match the whole.
